T cruzi inh = T. cruzi replication inhibition; 300,000 compounds, 1.4% hits; T. cruzi beta-gal in NIH3T3, luminescence, 90 h; inhibition, % (concentration not given with the values);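 active = mean inhibition across valid replicates above about 55%, limit read from the data; inconclusive = mean below that limit but half or more replicates reach it; inactive = mean below it, under half of replicates reach it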;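 note: signal also drops with host cell toxicity which is not excluded here; 0% = plate median of DMSO wells and 100% = zero luminescence signal; higher percent means less beta-gal luminescence so fewer parasites; stock transfer was 50 nL into about 50 µL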
RanGTP-Imp inh = inhibitors of RanGTP-importin-beta interaction, primary screen, biochemical, FRET, CFP-Ran, YFP-importin-beta, homogeneous; inhibition, % (test concentration not listed); 300,000 compounds, 1.1% hits; cell-free CFP-Ran/YFP-importin-beta FRET ratio; AID 2216;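 active = most replicates above 15%; inconclusive = exactly half above 15%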;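 note: 0% = DMSO wells and 100% = Ran loaded with GDP instead of GTP; wells of about 40 µL received 100 nL stock; the first replicate is given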
Vif A3G = HIV-1 Vif–A3G interaction blockers – biochemical, TR-FRET, GST-Vif 1-94, biotin-A3G peptide, dose response retest, primary screen (AID 1117319); TR-FRET GST-Vif / biotin-A3G peptide binding; higher % means a stronger effect; test concentration not given here; strong numbers were not always called active; one-dose inhibition, %; IC50 in µM for titrated hits; 260,000 compounds, 0.57% hits;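 active = above the screen mean plus three standard deviations and confirmed in dose response; inconclusive = results disagree or hit not tested in dose response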;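 note: Vif residues 1-94 fused to GST binding biotinylated APOBEC3G peptide 110-148; 0% = full assay without inhibitor and 100% = GST in place of GST-Vif; retest series ran down from 100 µM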
Bfl-1 A1 inh = inhibitors of the anti-apoptotic protein A1, read as caspase activation. MEF A1-2A-BIM cells, Caspase-Glo 3/7 luminescence, 3 h; percent of clofoctol response, vehicle zero. caspase activation, % (no concentration beside the values). 330,000 compounds, 0.066% hits;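 active = over half of replicate activation scores above 10%, or exactly half above 10 with the replicate mean above 10; inconclusive = replicate mean below 10 yet half the replicates above 10; inactive = over half of replicates below 10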;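 note: wells of about 30 µL received 50 nL stock; many hits fall short of the cut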
Calb FLC = C. albicans growth modulation with fluconazole; C. albicans CaCi-2 (fluconazole-resistant clinical isolate) + fluconazole, Alamar Blue growth, 48 h; growth inhibition, % (concentration not given with the values); 300,000 compounds, 0.57% hits; AID 1979;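 active = most replicates above 75%; inconclusive = exactly half above 75%; inactive = most below 75%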;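 note: all wells also contain fluconazole at 8 µg/ml as a sub-toxic cotreatment; 0% = median of DMSO wells and 100% = median of geldanamycin control wells; wells of about 8 µL received 7.5 nL stock; the first replicate is given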
LANA-H2A inh = blocks KSHV LANA binding to histone H2A/H2B. Q9QR71. cell-free LANA-H2A/H2B peptide, fluorescence polarization. inhibition, % (concentration not given with the values). 320,000 compounds, 0.6% hits; in the data active = inhibition mostly above about 10%, no sharp cut-off; inactive = mostly below about 6.7%;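 note: stock transfer was 7.5 nL into about 10 µL; 0% = median of vehicle wells and 100% = median of positive control wells; one replicate is shown; the record names a cut of 25% in any replicate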
Target sequence (Q9QR71 whole entry, looked up): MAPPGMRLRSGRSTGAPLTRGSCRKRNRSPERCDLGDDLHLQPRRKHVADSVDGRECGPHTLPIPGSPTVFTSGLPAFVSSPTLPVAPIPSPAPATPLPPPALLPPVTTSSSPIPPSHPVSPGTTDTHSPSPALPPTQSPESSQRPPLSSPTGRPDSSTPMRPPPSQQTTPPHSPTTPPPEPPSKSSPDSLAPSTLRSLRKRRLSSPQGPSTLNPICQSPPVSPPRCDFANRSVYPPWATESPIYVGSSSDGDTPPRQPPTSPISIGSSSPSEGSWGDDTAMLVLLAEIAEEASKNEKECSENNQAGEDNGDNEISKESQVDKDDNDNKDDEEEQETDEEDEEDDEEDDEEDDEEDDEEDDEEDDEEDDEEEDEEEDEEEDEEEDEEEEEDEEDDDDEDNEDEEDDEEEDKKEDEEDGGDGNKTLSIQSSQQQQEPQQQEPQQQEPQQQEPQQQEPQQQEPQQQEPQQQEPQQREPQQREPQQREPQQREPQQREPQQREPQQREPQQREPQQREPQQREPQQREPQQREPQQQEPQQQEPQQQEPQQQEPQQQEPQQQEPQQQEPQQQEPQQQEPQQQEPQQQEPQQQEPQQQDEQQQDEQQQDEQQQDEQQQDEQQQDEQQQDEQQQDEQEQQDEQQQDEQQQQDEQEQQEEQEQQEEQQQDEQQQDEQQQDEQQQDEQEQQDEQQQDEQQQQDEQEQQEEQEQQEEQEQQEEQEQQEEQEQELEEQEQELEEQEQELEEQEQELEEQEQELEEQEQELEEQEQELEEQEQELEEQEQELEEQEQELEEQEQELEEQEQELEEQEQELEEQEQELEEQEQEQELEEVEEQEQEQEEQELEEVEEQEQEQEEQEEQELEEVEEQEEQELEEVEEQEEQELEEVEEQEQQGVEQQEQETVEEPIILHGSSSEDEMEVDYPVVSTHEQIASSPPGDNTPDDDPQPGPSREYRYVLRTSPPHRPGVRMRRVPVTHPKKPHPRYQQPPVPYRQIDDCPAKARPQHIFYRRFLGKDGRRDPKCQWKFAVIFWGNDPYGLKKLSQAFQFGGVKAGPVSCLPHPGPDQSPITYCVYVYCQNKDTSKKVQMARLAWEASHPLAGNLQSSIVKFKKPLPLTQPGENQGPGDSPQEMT
AF4-AF9 inh = blocks AF4 peptide binding to human AF9. P42568. AlphaScreen, biotin-AF4 peptide binding to FLAG-AF9. inhibition, % at 10 µM. 350,000 compounds, 0.47% hits;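 active = every replicate reaching a set inhibition limit, whatever the replicate mean, cut at about 25% in these data; inconclusive = mean inhibition reaches that limit but some replicates miss it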;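 note: 0% = plate neutral control median and 100% = total signal loss; the record names both 10 and 1 µM as test concentration; the first replicate is given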
Beta apoptosis = beta cell apoptosis inhibition | INS-1E cytokine-induced death, ATP luminescence, 48 h; percent of positive-control rescue, neutral wells zero | protection from apoptosis, % (test concentration not listed) | 300,000 compounds, 0.8% hits | AID 435005;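 active = all replicates at 75% or more, or half of them and the mean; inconclusive = half reach 75% but not the mean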;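 note: 0% = cytokine-treated negative control wells and 100% = positive control rescue; higher means more ATP so stronger rescue from cytokine killing; wells of about 40 µL received 100 nL stock; the first replicate is given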
* hit, by the source's call; ? = inconclusive; / = not tested or not shown.

SMILES	T cruzi inh	RanGTP-Imp inh	Vif A3G	Bfl-1 A1 inh	Calb FLC	LANA-H2A inh	AF4-AF9 inh	Beta apoptosis
Cc1ccc(NC(=S)NC(=O)c2ccc(-c3ccc(Cl)cc3)o2)c(O)c1	-1	4.9	/	-0.3	?	-2.0	-5.4	3
O=C(C1CCCC1)N1CCN(S(=O)(=O)c2ccc(Cl)cc2)CC1	6	2.1	/	0.7	-6	-3.7	?	-6
CC(C)C(NS(=O)(=O)c1c(Cl)cccc1Cl)C(=O)OCC(=O)c1c[nH]c2ccccc12 (stereo not given)	17	2.5	-2%	0.1	-29	0.1	/	/
NS(=O)(=O)c1ccc(NCc2cc(Cl)ccc2OCc2ccccc2F)cc1	-4	-0.7	-9%	1.9	25	-5.9	/	6
Cc1ccc(C(=O)Nc2ccnc(-c3cccnc3)n2)cc1	1	4.6	-30%	-1.7	57	0.5	-1.9	-7
COc1ccc(C2C(C(C)=O)=C(O)C(=O)N2c2nc3ccccc3s2)cc1OC (stereo not given)	4	0.3	-10%	0.2	-2	0.4	-0.9	0
N#Cc1cc(C(=O)c2cc(F)ccc2O)cn(-c2nccs2)c1=O	-14	-23	20%	-0.2	-3	-6.6	/	0
COC(=O)[C@]1(C)N[C@H](c2ccc(-c3ccc(F)cc3)cc2)[C@@H]2C(=O)N(C)C(=O)[C@@H]21	-16	?	/	1.8	4	-0.8	0.7	/
CCOC(=O)N1CCN(C(=O)CSc2ccc(Cl)cc2)CC1	3	1.1	6%	-1.3	-1	1.6	/	-6
CC1CCCN(C(=O)CSc2nnc(-c3ccncc3)n2C)C1 (stereo not given)	6	-2.9	7%	-0.9	-6	1.5	-0.6	1
CC12Cc3ccc4ccccc4c3C=C1C[N+](C)(C)C2 (stereo not given)	-2	?	0%	0.0	2	-0.6	/	-10
O=C(Nc1nc2ccc(Cl)cc2s1)[C@@H]1CCCN1C(=O)c1cccs1	-5	-7.3	/	0.0	-15	5.2	1.5	-11
Cn1c(SCC(=O)NC2CCCCC2)nnc1-c1ccc(N)cc1	-13	?	7%	-0.8	-32	-0.3	-0.3	-6
O=C(NCCc1c[nH]c2ccccc12)C(=O)NCC(c1cccnc1)N1CCN(c2ccccc2)CC1 (stereo not given)	42	10	3%	0.0	3	5.1	0.2	23
CO/N=C/c1ccc(Sc2ccccc2)c([N+](=O)[O-])c1	17	7.9	6%	-0.4	0	4.2	/	10
O=C(NCc1ccccc1)C1=C[C@H](C2CCCCC2)C[C@H](OCc2ccc(CO)cc2)O1	1	-0.1	/	-0.2	12	5.6	-0.5	36
O=C(CSc1nc(-c2ccccc2)ns1)NCC1CCCO1 (stereo not given)	-3	0.9	-6%	-0.3	-1	-3.9	-2.7	-11
COc1ccccc1CNC(=O)C(C)n1cccc1C(=O)c1ccccc1 (stereo not given)	19	-2.2	/	-0.2	3	-1.1	3.0	4
CCOc1ccc(NC(=O)c2ccccc2NS(=O)(=O)c2ccc(F)cc2)c([N+](=O)[O-])c1	-6	-1.8	/	0.0	4	-5.1	/	39
Nc1cccc2[nH]c(C(F)(F)F)nc12	-7	7.1	?	-0.3	?	-10	1.8	3
Cc1nn(Cc2ccc(F)cc2)c(C)c1NC(=O)c1cccnc1Cl	-1	0.4	/	0.5	5	0.2	/	-7
CCCCn1c(CCC)nc([N+](=O)[O-])c1Sc1ccc(Cl)cn1	0	0.5	9%	0.6	-18	-5.3	/	2
CCC(Oc1ccccc1)C(=O)N1CCN(C(=O)C(CC)Oc2ccccc2)CC1 (stereo not given)	5	-1.0	-3%	-0.2	-8	0.3	7.1	0
O=C(NCCCN1CCOCC1)C1(c2ccccc2)CCOCC1	-8	-3.3	?	-0.3	-16	-3.0	/	-5
Cc1ccc(Sc2c(O)c3ccccc3n(C)c2=O)cc1	-5	4.1	/	/	-3	/	-3.8	/
O=C(CSc1nnc2ccc(-c3ccc(F)cc3)nn12)N1CCCC1	-3	0.6	-9%	0.3	13	-3.8	0.4	1
CS(=O)(=O)N1CCC(C(=O)Nc2ccc(Cl)c(Cl)c2)CC1	3	6.0	-1%	1.3	-4	2.2	-1.0	/
CS(=O)(=O)c1ccc(Cl)c(NC(=O)CCNC(=O)c2ccco2)c1	-5	1.7	/	0.1	35	-4.0	-1.3	-6
CCCC(=O)Nc1ccc(-c2nc3cc(C)c(C)cc3o2)c(O)c1	7	-2.2	-7%	1.4	0	-13	/	3
Cc1cc(=O)n2c3c(cccc13)CCC2	-4	2.9	-9%	0.6	-7	7.4	/	-5
Nn1c(SCC(=O)N2CCOCC2)nnc1-c1ccco1	-8	0.3	2%	0.4	-3	-0.6	/	-3
COCCCNC(=O)c1ccc([N+](=O)[O-])cc1	-18	-0.1	2%	?	1	-6.2	-3.4	-2
O=C1NC(Cc2ccccc2)c2nc3ccc(F)cc3c(=O)n2-c2ccccc21 (stereo not given)	/	/	/	0.3	/	-4.7	6.2	-9
O=C1NC(c2ccccn2)Nc2sc3c(c21)CCC3 (stereo not given)	-22	-2.0	?	-5.5	-2	-4.7	/	35
CCCc1nc2sc3c(=O)n(N)cnc3c2c2c1COC(C)(C)C2	5	-3.2	/	0.3	23	1.8	/	-7
O=C(COc1ccc(C(=S)N2CCOCC2)cc1)Nc1ccccc1C(F)(F)F	-4	-3.1	/	-0.8	19	-2.2	2.9	-1
CCc1nnc(NC(=O)c2cccc(NC(=O)C(C)C)c2)s1	-1	-0.6	6%	0.3	-16	5.6	/	-1
O=C(Cn1nc(-c2cccc([N+](=O)[O-])c2)c2ccccc2c1=O)NCC1CCCO1 (stereo not given)	0	4.0	-1%	-0.3	-13	1.3	-0.2	/
Cn1cc(CNC(=O)c2ccc(OC3CCN(Cc4ccccn4)CC3)cc2)cn1	-10	2.9	/	/	-2	/	5.0	/
CCOc1ccccc1CNS(=O)(=O)c1ccc2c(c1)oc(=O)n2C	-7	0.8	2%	-0.1	4	2.1	1.3	-4
CCCN(CCC)S(=O)(=O)c1cccc(C(=O)N=c2sccn2C)c1	2	-1.5	/	-0.5	-4	0.2	-1.5	1
O=C(CCC1CCCN(C(=O)C2=CCCCC2)C1)N1CCN(c2ccccn2)CC1 (stereo not given)	19	/	8%	-0.6	-10	1.4	-1.6	-5
Cc1cc(NC(=O)CCCC(=O)Nc2ccc(F)cc2)no1	-6	-2.2	-5%	-0.5	-2	-2.0	/	6
O=C(O)c1ccc(N/N=C/c2ccc(-c3ccccc3Cl)o2)cc1	-5	54*	13%	-7.9	1	9.6	5.2	-10
Cc1ccc(C)c(N2CCN(S(=O)(=O)c3c(C)[nH]c(C)c3C(=O)N3CCCC3)CC2)c1	7	-1.7	/	0.2	-8	1.1	4.9	-11
COCCn1nnnc1C(c1ccc(OC)c(OC)c1)N1CCN(C(=O)c2ccco2)CC1 (stereo not given)	-4	-0.4	/	-0.3	0	1.0	-0.8	-8
COC(=O)c1c(NC(=O)c2ccco2)sc(C(=O)Nc2ccc(F)cc2)c1C	16	0.7	-5%	-0.1	7	-1.0	-41	22
O=C(Nc1ccc2nc3n(c(=O)c2c1)CCCC3)c1ccccc1F	-2	0.0	-4%	-0.7	-2	1.4	-3.9	3
COc1ccc(C(=O)Nc2nnc(SCC(=O)Nc3ccc(NC(C)=O)cc3)s2)c(OC)c1	-4	-0.1	/	-6.4	-3	0.1	-11	-1
CN(C)c1ccc(/C=N/NC(=O)c2ccnn2C)cc1	-4	2.2	-6%	0.6	-4	-3.9	-0.7	4
O=S(=O)(Cc1ccc(Cl)cc1)N1CCN(c2ncccn2)CC1	2	0.8	/	-1.0	-13	-9.6	-1.5	3
CC(CC(=O)Nc1ccc(F)c([N+](=O)[O-])c1)c1ccccc1 (stereo not given)	6	-3.2	-2%	-0.4	-17	-4.8	1.1	7
COC(=O)c1cc(NC(=O)CSc2nc(C)cc(=O)[nH]2)cc(C(=O)OC)c1	6	3.0	8%	-0.2	42	0.7	5.0	0
CCOC(=O)C1CCN(C(=O)C(=O)N2CCC(C(=O)OCC)CC2)CC1	-5	2.0	5%	0.0	0	1.5	/	0
CCCC1Cc2c(sc(NC(=S)NC(=O)c3ccccc3)c2C#N)CO1 (stereo not given)	9	-0.5	/	0.4	-15	-0.4	/	7
COc1ccc(C(=O)NCC(=O)OCC(=O)Nc2c(C)n(C)n(-c3ccccc3)c2=O)cc1	-5	?	2%	0.2	-9	-0.5	/	-14
COc1ccccc1N(C)S(=O)(=O)c1ccc(C(=O)OCC(N)=O)cc1	-32	?	9%	-0.2	5	-0.6	-0.1	-19
O=C(c1cn(-c2ccccc2)nc1-c1ccccc1)n1nnc2ccccc21	-19	-6.2	2%	2.0	5	1.6	/	-16
Cc1cc(NC(=O)c2cc(-c3cccs3)on2)no1	-7	-4.7	5%	0.0	-7	-4.0	2.7	1
Oc1ccccc1N1CCN(CC(O)COCc2ccccc2Cl)CC1 (stereo not given)	33	2.5	-7%	1.4	-23	-3.1	3.3	-3

Other records
SMILES	T cruzi inh	RanGTP-Imp inh	Vif A3G	Bfl-1 A1 inh	Calb FLC	LANA-H2A inh	AF4-AF9 inh	Beta apoptosis
CCC1Oc2ccccc2N(CC(=O)N2CCOCC2)C1=O (stereo not given)	-7	2.7	/	0.4	-3	-0.7	-2.2	-3
Cc1ccc(S(=O)(=O)N2CCOCC2)cc1C(=O)NC1CCCCCC1	-12	0.9	-2%	0.2	8	-5.9	-1.2	-2
CC(=O)N1c2ccccc2NC2=C(C(=O)CC(C)(C)C2)C1c1cccn1C (stereo not given)	-6	5.3	2%	0.6	6	-41	-1.8	-7
CN(C)CCCNC(=O)c1cc(Br)ccc1Cl	1	2.2	-2%	0.4	34	4.9	/	0
CC(C)(C)c1ccc(C(=O)NNc2cc(N3CCOCC3)nc(N3CCOCC3)n2)cc1	17	85*	21%	-0.4	-6	4.4	0.8	-1
COc1ccc(CNC(=O)COC(=O)Cc2ccc(Cl)cc2Cl)cc1	8	-4.2	-3%	0.2	?	0.2	-3.4	-5
NC(=O)C1CCCN(Cc2c(C(=O)N3CCc4ccccc4C3)nc3ccc(Cl)cn23)C1 (stereo not given)	5	3.3	-3%	-0.5	3	99*	2.0	-7
Cc1csc(=N)n1-c1ccc(Cl)cc1	-4	-6.0	19%	-1.9	-9	2.7	-8.0	3
CCCCNC(=S)N1CCN(C(c2ccccc2)c2ccccc2)CC1	49	-0.4	5%	-0.2	27	2.9	0.8	16
COc1ccc2c(c1)N(S(=O)(=O)c1ccccc1)CCC2=O	-4	3.0	/	0.3	-6	-1.0	/	-4
CCNC(=O)NC(=O)COc1ccccc1C#N	-2	0.0	-1%	-3.1	-1	-4.7	/	0
Cc1ccc(C)c(S(=O)(=O)N2CCCOC2CNC(=O)C(=O)NC2CC2)c1 (stereo not given)	-10	-0.1	-1%	0.0	-3	0.1	-8.8	4

Assay outcomes deposited in PubChem by several laboratories.
